POLH inh = blocks human DNA polymerase eta activity. actives 1.2% (n = 390,000). Q9Y253. AID 588591. Potency, µM (series often up to 114 µM), for inactives: top-dose activity change, negative = inhibition, most hits filed as inhibitors. recombinant Pol eta, fluorescent DNA replication assay; further: on the % scale 0 is the no-effect control and ±100 the full control effect
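Pol eta at 10 nM preincubated with compounds 15 min at room temperature; reaction started with fluorescent substrate (50 nM final) and read kinetically at 0 and 10 min.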
JMJD2A Tudor = JMJD2A Tudor domain (human) inhibition; AID 504339; O75164; Potency, µM (doses to about 114 µM), inactives show at the highest dose activity change, negative = inhibition, actives largely listed as inhibitors; AlphaScreen JMJD2A-Tudor / H3K4me3 peptide binding; actives 4.4% (n = 390,000); further: on the % scale 0 is the no-effect control and ±100 the full control effect; nearly all actives have a fitted effect of over 50% in size
Target sequence (O75164 whole entry, looked up, the tested form may be a part): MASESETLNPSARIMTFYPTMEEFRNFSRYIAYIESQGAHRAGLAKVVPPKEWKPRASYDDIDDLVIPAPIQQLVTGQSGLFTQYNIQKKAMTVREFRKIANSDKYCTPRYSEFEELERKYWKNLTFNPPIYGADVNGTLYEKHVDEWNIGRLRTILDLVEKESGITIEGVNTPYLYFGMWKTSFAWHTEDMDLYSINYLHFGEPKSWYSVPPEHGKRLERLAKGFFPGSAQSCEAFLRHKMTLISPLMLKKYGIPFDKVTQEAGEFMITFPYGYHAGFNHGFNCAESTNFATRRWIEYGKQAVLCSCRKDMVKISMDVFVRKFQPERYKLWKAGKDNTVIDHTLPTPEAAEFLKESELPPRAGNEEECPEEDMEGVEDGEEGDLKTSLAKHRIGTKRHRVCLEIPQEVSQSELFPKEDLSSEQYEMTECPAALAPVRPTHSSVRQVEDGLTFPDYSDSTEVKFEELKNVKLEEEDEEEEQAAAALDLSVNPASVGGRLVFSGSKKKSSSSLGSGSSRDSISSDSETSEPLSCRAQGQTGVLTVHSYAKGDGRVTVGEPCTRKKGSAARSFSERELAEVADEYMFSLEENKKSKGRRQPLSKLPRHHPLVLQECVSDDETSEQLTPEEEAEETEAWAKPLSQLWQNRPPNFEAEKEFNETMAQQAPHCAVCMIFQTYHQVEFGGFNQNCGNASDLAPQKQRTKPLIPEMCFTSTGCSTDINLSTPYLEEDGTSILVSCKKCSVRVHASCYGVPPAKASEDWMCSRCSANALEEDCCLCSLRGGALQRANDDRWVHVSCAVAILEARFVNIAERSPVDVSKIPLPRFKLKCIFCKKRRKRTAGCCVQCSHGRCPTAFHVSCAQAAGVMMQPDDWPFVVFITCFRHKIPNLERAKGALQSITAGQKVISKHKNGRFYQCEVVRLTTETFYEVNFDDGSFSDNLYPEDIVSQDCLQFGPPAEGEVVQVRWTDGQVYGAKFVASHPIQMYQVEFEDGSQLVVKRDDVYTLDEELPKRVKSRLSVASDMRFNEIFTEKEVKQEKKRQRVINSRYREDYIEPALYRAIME
BLM inh = Bloom syndrome helicase (human) inhibition. P54132. recombinant BLM DNA unwinding, fluorescence dequenching. Potency, µM (doses to about 56.1 µM), inactives show top-dose activity change, negative = inhibition, usual class: inhibitors. actives 0.2% (n = 350,000);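 further: plate controls were vehicle for no effect and no enzyme for full effect; nearly all actives have a fitted effect of over 35% in size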
Pol iota inh = DNA polymerase iota (human) inhibition. Pol iota fluorescent replication assay, 10 min. actives 1% (n = 390,000). Potency, µM (highest dose often 115 µM), for inactives: top-dose activity, negative = inhibition, usual class: inhibitors
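Fluorescent replication assay read twice, at 0 min and 10 min after adding 50 nM (final) substrate. Enzyme (10 nM) and compounds were first incubated 15 min at room temperature; enzyme-free buffer wells were negative controls.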
G9a block = inhibitors of human histone lysine methyltransferase G9a; Q96KQ7; G9a H3K9 monomethylation, AlphaScreen, 2 h; Potency, µM (titrated, usually from 102 µM), inactives show at the top dose activity, negative = inhibition, usual class: inhibitors; actives 8.8% (n = 350,000); AID 504332; further: on the % scale 0 is the no-effect control and ±100 the full control effect; nearly all actives have a fitted effect of over 75% in size
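Readings reflect AlphaScreen signal from monomethyl-H3K9 antibody detection. HMT at 20 nM; substrate b-H3K9 500 nM; cofactor SAM 20 uM; 2 h RT reaction; compounds tested as titrations in qHTS with 15 min preincubation.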
Pol beta inh = DNA polymerase beta (human) inhibition; P06746; Pol beta primer extension/strand displacement, fluorescence kinetic; Potency, µM (doses to about 114 µM), without a hit: at the highest dose activity change, negative = inhibition, most hits filed as inhibitors; actives 1.3% (n = 340,000); further: on the % scale 0 is the no-effect control and ±100 the full control effect
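Reaction started by 50 nM substrate onto compound-treated Pol beta (10 nM, 15 min preincubation, room temperature); plates read at 0 min and 10 min. Normalized concentration-effect data fitted by four-parameter Hill equation.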
POLK inh = inhibitors of human DNA polymerase kappa. Q9UBT6. purified Pol kappa, fluorescent DNA synthesis assay, 10 min. Potency, µM (highest dose often 107 µM), for inactives: at the highest dose activity, negative = inhibition, hits mostly inhibitors. actives 0.53% (n = 400,000); further: on the % scale 0 is the no-effect control and ±100 the full control effect
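10 nM Pol kappa was preincubated with compounds for 15 min at room temperature. Reaction started with 50 nM (final) substrate. Fluorescence read kinetically at 0 and 10 min.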
APEX1 inh = APE1 (human) endonuclease inhibition; actives 0.35% (n = 350,000); AID 2517; Potency, µM (highest dose often 65.8 µM), for the others: at the highest dose activity change, negative = inhibition, hits mostly inhibitors; P27695; recombinant APE1, TAMRA/BHQ-2 abasic DNA cleavage fluorescence;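 further: plate controls were vehicle for no effect and reference inhibitor for full effect; nearly all actives have a fitted effect of over 55% in size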
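APE1 at 0.75 nM preincubated 15 min at room temperature with compound. Reaction then started with 50 nM double-stranded THF-abasic substrate labelled with TAMRA/BHQ-2, and 525/598 nm fluorescence read kinetically. Activity taken as third-minus-first read difference, normalized to DMSO and NSC13755 controls.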
* hit, by the source's call; u = inconclusive; x = no result given; [ ] = remark or other dose. The call rests on the fitted dose curve; in most records, active means well fitted curve in the direction sought with a large enough effect; inconclusive means small, poorly fitted or top-dose-only effect, or another doubt; inactive means no such curve, though single readings can be large; an effect the other way counts as inactive or inconclusive. Potency means the concentration at half of the fitted maximal effect.

The first 5 entries, to show the layout:
SMILES | POLH inh | JMJD2A Tudor | BLM inh | Pol iota inh | G9a block | Pol beta inh | POLK inh | APEX1 inh
COc1ccccc1N(C)S(=O)(=O)c1ccc(Cl)c(C(=O)NNC(=O)c2ccccc2O)c1 | 5.0% | -34.6% | -7.9% | 8.1% | x | 15.3% | -8.3% | -35.3%
COCCNC(=O)CN(c1ccc(OC)c(OC)c1)S(=O)(=O)c1ccc(C)cc1 | -16.8% | 3.3% | -0.5% | 18.4% | u | -0.2% | -6.1% | -8.1%
O=C(CCNC(=O)c1ccc([N+](=O)[O-])cc1)Nc1ccc(N2CCOCC2)cc1N1CCOCC1 | -7.7% | -6.1% | -0.4% | 22.3% | -1.5% | -14.2% | -7.6% | 2.6%
CCOC(=O)c1sc(NN=C(C(=O)OC)C(=O)OC)c(C(=O)OCC)c1C | -2.3% | u | -6.0% | 18.4% | u | 10.0% | -21.5% | 4.4%
Oc1cccc(C(=S)N2CCC(Cc3ccccc3)CC2)c1 | -25.2% | u | -20.7% | 12.3% | 11.2µM* | 0.2% | 6.5% | -20.5%

The whole of this part, previewed entries included:
SMILES | POLH inh | JMJD2A Tudor | BLM inh | Pol iota inh | G9a block | Pol beta inh | POLK inh | APEX1 inh
COc1ccccc1N(C)S(=O)(=O)c1ccc(Cl)c(C(=O)NNC(=O)c2ccccc2O)c1 | 5.0% | -34.6% | -7.9% | 8.1% | x | 15.3% | -8.3% | -35.3%
COCCNC(=O)CN(c1ccc(OC)c(OC)c1)S(=O)(=O)c1ccc(C)cc1 | -16.8% | 3.3% | -0.5% | 18.4% | u | -0.2% | -6.1% | -8.1%
O=C(CCNC(=O)c1ccc([N+](=O)[O-])cc1)Nc1ccc(N2CCOCC2)cc1N1CCOCC1 | -7.7% | -6.1% | -0.4% | 22.3% | -1.5% | -14.2% | -7.6% | 2.6%
CCOC(=O)c1sc(NN=C(C(=O)OC)C(=O)OC)c(C(=O)OCC)c1C | -2.3% | u | -6.0% | 18.4% | u | 10.0% | -21.5% | 4.4%
Oc1cccc(C(=S)N2CCC(Cc3ccccc3)CC2)c1 | -25.2% | u | -20.7% | 12.3% | 11.2µM* | 0.2% | 6.5% | -20.5%
COc1ccc([C@]23Cc4cc(OC)c(OC)cc4C(O2)C2=C(CC4(CCCCC4)OC2=O)O3)cc1 | x | x | 20.5%[12.4 µM] | x | -8.0%[2.33 µM] | 18.8%[22.9 µM] | x | -5.9%[12.4 µM]
COc1ccc(-c2nc3c(C#N)c[nH]n3c2NC2CCCC2)c(OC)c1 | -17.4% | u | -5.6% | 38.5%[activator] | u | -1.1% | -8.8% | x
CCc1ccc(-n2c(SCC(=O)Nc3cc(C)[nH]n3)nc3[nH]ncc3c2=O)cc1 | -15.6% | -16.8% | -3.5% | -3.9% | 22.5%[59 µM] | 35.7% | 0.0% | -3.7%
O=C(Nc1cccc(-c2cn3c(n2)SCC3)c1)c1ccc2ccccc2n1 | -12.7% | -14.6% | -10.1% | 37.2%[activator] | 8.91µM* | 8.3% | -7.9% | 1.2%
C/C(=N\NC(=S)NCc1ccccc1)c1cccs1 | -20.5% | u | -7.8% | 38.2%[activator] | u | 0.8% | 1.0% | -8.3%
O=C(CS(=O)(=O)c1ccc(Cl)cc1)Nc1nnc(-c2cccs2)o1 | 6.6% | u | 0.0% | 2.9% | 5.7% | 1.3% | -4.6% | 9.3%
Cn1c(=O)n(C)c2cc(N3CCOCC3)c(NS(=O)(=O)c3ccc(Cl)cc3)cc21 | -14.2% | -19.2% | 2.1% | 9.1% | -50.7%[59 µM] | 6.4% | -26.6% | x
COc1ccc([C@]23Cc4cc(OC)c(OC)cc4C(O2)c2c(cc(-c4ccccc4)oc2=O)O3)cc1 | x | x | -8.9%[12.4 µM] | x | -19.1%[2.33 µM] | 0.6%[22.9 µM] | x | -9.4%[12.4 µM]
O=C(NCCCN1CCN(c2ccc(F)cc2)CC1)c1sc2ncccc2c1-n1cccc1 | -16.9% | u | 3.0% | 6.1% | -34.2%[59 µM] | 28.2% | -4.9%[60.1 µM] | x
CCOC(=O)Nc1cccc(NC(=O)c2cc(OC)cc(OC)c2)c1 | -9.0% | -16.2% | 4.1% | -1.8% | 0.4%[59 µM] | 0.8% | -6.6% | 4.8%
Cc1cccc(C(C)(C)C)c1OCCCCN1CCCC1 | -13.3% | -18.3%[11.4 µM] | 0.9% | u | 10µM* | -28.4% | -1.8% | 3.0%
CCCSc1nnc2c(n1)OC(c1sccc1C)Nc1ccccc1-2 (stereo not given) | 0.0% | u | -4.5% | u | u | -4.0% | u | x
CC(=O)Nc1ccc2c(c1)CCCC2=O | -8.4% | -10.9% | -14.4% | 113.1%[activator] | x | -0.5% | 6.7% | -11.5%
C/C(=C\C(=S)Nc1ccccc1)Nc1cccc2ccccc12 | -12.3% | u | -20.8% | 24.8% | -31.7%[59 µM] | 10.2% | -3.2% | -3.8%
N#Cc1nc(Cc2cccc3ccccc23)oc1NCCCn1ccnc1 | -2.0% | u | 1.7% | 1.6% | u | 0.0% | -18.8% | -0.6%
CS(=O)(=O)N(CC(=O)NCCC1=CCCCC1)c1ccc2c(c1)OCO2 | -7.9% | 3.1% | -6.5% | -21.6% | -7.0%[2.33 µM] | 3.7% | 4.4% | -6.0%
O=C(O)c1ccc2c(=O)n3c(nc2c1)/C(=C/c1ccc(Cl)cc1Cl)CC3 | u | -16.8% | -1.7% | -20.4% | 3.6% | 27.7% | -6.1% | 3.6%
CCNc1nc(-c2cc(C)n(Cc3ccco3)c2C)cs1 | -1.3% | u | -21.0% | 32.4%[activator] | 15.8µM* | u | 9.9% | 10.7%
Cc1c(C(=O)Nc2ccccc2)sc2ncn(CC(=O)N3CCCCC3)c(=O)c12 | -4.3% | 0.0% | -2.7% | 34.7%[activator] | 14.6%[59 µM] | -7.9% | -1.1% | 78.7%[activator][12.4 µM]
O=C(CN1CCCc2ccccc21)NC(=O)NCc1ccco1 | 0.6% | u | -13.2% | 3.3% | u | 7.1% | -22.3% | -4.1%
Cc1ccc(-n2cc(-c3ccccc3)c3c(NN4CCOCC4)ncnc32)cc1 | -19.3% | u | -10.4% | 29.2% | u | 11.1% | 4.2% | 5.8%
COc1cccc(OC)c1OC(=O)/C=C/c1ccc(C)o1 | -21.8% | -17.9% | -5.3% | 14.3% | 50.1µM* | 0.8% | -12.5% | -7.7%
COC(=O)c1nc(NC(=O)C(C)C)n[nH]1 | 4.6% | -1.2% | -5.1% | 35.0%[activator] | 31.6µM* | -0.6% | 2.8% | 2.5%
O=C(CSCC(=O)NCc1ccco1)NCc1ccco1 | -1.8% | -17.8% | -1.0% | 11.5% | u | 0.0% | -3.0%[60.1 µM] | u
Cc1ccc(C(=S)N2CCN(Cc3ccccc3)CC2)s1 | -22.1% | u | -4.8% | 98.0%[activator] | 17.8µM* | -23.4% | -10.8% | 1.7%
O=C(Nc1nnc(-c2cccnc2)s1)c1cccs1 | -3.2% | 0.7% | 1.4% | 24.0% | 10.8%[59 µM] | -2.3% | 9.2% | 1.1%
Cc1nn(C(C)C(=O)NCc2cccc(F)c2)c(=O)c2c1sc1ccccc12 (stereo not given) | -12.4% | u | -7.7% | -6.5% | u | 15.8% | -15.1% | x
CCOc1ccc(/C=C/C2=CC(C)(C)NC(=S)N2)cc1 | -28.3% | -33.6% | 0.3% | 59.3%[activator] | 39.8µM* | 4.6% | -9.2% | 3.6%
CCOc1ccc(CCNC(=O)CSc2nnnn2-c2ccccc2Cl)cc1OCC | -16.8% | -17.5% | -5.6% | 6.5% | -3.4%[59 µM] | 13.8% | 5.1% | x
Cc1ccc(-n2[nH]c(C)c(/C=N/NC(=O)c3ccc([N+](=O)[O-])cc3)c2=O)c(C)c1 | x | x | -7.5% | x | -36.9% | -0.2% | x | 0.2%
Cc1ccc(Cn2c(CO)cnc2SCc2ccc(F)cc2)cc1 | -9.7% | u | -6.2% | 13.7% | -38.9%[59 µM] | -14.5% | -14.3%[60.1 µM] | x
Cc1ccc(CSc2ccc3nnc(-c4ccccn4)n3n2)cc1 | -15.4% | -21.2% | 2.4% | 214.8%[activator] | 1.2% | -6.3% | -3.0% | -2.8%
Oc1c(C(c2ccccc2F)N2CCN(c3ccccc3F)CC2)sc2nc(-c3ccco3)nn12 (stereo not given) | -7.4% | u | -7.5% | -3.8% | u | -1.4% | -11.4%[60.1 µM] | x
Cc1c(N=C2NC(=O)C(CC(=O)Nc3ccc(Cl)cc3)S2)c(=O)n(-c2ccccc2)n1C (stereo not given) | -11.6% | -8.6% | -1.1% | 15.1% | -17.6%[59 µM] | u | -17.9% | 3.2%
COc1cc2nc(N(CCN(C)C)C(=O)c3ccc4ccccc4c3)sc2cc1OC | -9.0% | u | 15.9% | 1.5% | 44.7µM* | u | 5.3% | 37.0%
COc1ccc(-n2c(Cc3cccn3C)nnc2SCC(=O)NCc2ccccc2Cl)cc1 | -18.6% | u | -1.2% | 2.6% | 50.1µM* | 19.4% | -12.0% | 22.4%
Cc1cc(NC(=O)CN2CCN(S(=O)(=O)c3ccc4ccccc4c3)CC2)no1 | -0.8% | -12.5% | -5.2% | -1.5% | -7.1% | 7.2% | 5.0% | 17.0%
COc1cc(N)c(Cc2nccc3cc(OC)c(OC)cc23)cc1OC | -13.5% | u | -5.3% | 75.8%[activator] | u | -3.5% | 1.5% | -1.3%
CCOCC(=O)Nc1ccc(-c2cn3c(C)csc3n2)cc1 | 2.7% | -2.9% | 1.0% | -20.2% | 3.1%[59 µM] | -22.7% | 3.0%[60.1 µM] | x
Cc1ccc(Cn2c(=O)n(Cc3ccco3)c(=O)c3ccccc32)cc1 | -11.5% | 10.6% | -11.6% | -11.4% | 6.5%[59 µM] | 0.7% | -3.1% | 3.8%
Cc1ccc(-c2nc3c(c(SCC(=O)N(C)c4ccccc4)n2)Cc2c(CO)cnc(C)c2O3)cc1 | -13.1% | u | -2.6% | -4.3% | 17.8µM* | -0.2% | -33.5% | x

Entries of single compounds, quoted from the list.
O=C(CN1CCCc2ccccc21)NC(=O)NCc1ccco1 in the list: POLH inh: 0.6%; JMJD2A Tudor: u; BLM inh: -13.2%; Pol iota inh: 3.3%; G9a block: u; Pol beta inh: 7.1%; POLK inh: -22.3%; APEX1 inh: -4.1%
O=C(CSCC(=O)NCc1ccco1)NCc1ccco1 in the list: POLH inh: -1.8%; JMJD2A Tudor: -17.8%; BLM inh: -1.0%; Pol iota inh: 11.5%; G9a block: u; Pol beta inh: 0.0%; POLK inh: -3.0%[60.1 µM]; APEX1 inh: u

Only part of the results is shown, so the mix of outcomes need not match the whole.
